# Source: PubChem (National Center for Advancing Translational Sciences (NCATS))
# Six1-Eya2 inh: inhibitors of human Six1/Eya2 interaction. Q15475+O00167. AlphaScreen GST-Six1/His-Eya2 binding, biochemical; stronger effect = lower value; control for the full effect not named in the record. activity change, % (no concentration beside the values). hit rate 0.56% among 360,000; in the data active = activity change below about -65%; inconclusive = about -30% to -65%; inactive = above about -30%; also: % is scaled to controls: 0 for no effect and ±100 for the full control effect; compound concentration not given in the record
# Target sequence (O00167 whole entry, looked up): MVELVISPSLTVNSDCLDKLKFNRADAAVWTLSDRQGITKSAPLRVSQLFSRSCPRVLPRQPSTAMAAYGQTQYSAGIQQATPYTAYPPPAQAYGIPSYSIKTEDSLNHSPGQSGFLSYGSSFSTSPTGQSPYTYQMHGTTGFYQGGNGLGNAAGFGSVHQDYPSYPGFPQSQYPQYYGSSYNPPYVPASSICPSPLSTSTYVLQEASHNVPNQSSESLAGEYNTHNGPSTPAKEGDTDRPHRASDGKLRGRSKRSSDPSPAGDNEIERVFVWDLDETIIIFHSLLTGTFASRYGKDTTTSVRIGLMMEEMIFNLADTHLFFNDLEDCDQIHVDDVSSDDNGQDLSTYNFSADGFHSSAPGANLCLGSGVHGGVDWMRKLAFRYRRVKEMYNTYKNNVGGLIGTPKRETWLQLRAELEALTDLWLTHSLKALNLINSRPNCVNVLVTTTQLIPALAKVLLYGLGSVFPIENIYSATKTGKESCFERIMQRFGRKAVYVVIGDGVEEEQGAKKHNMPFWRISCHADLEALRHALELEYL
# Target sequence (Q15475 whole entry, looked up): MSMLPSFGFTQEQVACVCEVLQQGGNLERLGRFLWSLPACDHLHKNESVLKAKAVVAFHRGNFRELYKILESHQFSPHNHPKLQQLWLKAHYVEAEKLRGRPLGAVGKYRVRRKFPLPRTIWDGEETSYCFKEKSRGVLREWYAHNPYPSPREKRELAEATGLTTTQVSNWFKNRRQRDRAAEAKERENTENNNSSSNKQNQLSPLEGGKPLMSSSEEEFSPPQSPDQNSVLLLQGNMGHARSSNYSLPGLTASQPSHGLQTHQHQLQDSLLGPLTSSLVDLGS
#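 Compounds are tested against tagged Six1 and Eya2 proteins bridged by glutathione donor and nickel acceptor beads; after a one-hour incubation at 37 °C without light, AlphaScreen emission is recorded.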
# D2 PAM: human D2 receptor positive allosteric modulation; DiscoveRx D2 beta-arrestin cells, luminescence, 90 min; 100% = 57 uM dopamine signal; potentiation, % (test concentration not listed); hit rate 0.23% among 360,000; active = potentiation of 50% or more; inconclusive = 30% to 50%; inactive = 30% or less;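 also: compound concentration not given in the record; tested on top of an EC20 dose of dopamine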
#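 PathHunter D2 cells, attached overnight at 37 deg C, received compound in DMSO plus dopamine at EC20 (50 nM final) for 90 min at 37 deg C. Beta-arrestin recruitment was read as luminescence after 1 h with detection reagent at ambient temperature.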
# TRPML1 blocker: blocks the human TRPML1 channel; Q9GZU1; TRPML1-inducible cells, Ca2+ dye fluorescence, FDSS; stronger effect = lower value; inhibition of EC80 agonist-evoked calcium signal; activity change, negative = inhibition, % (concentration not given with the values); hit rate 0.02% among 390,000; AID 624415; in the data active means activity change below about -50%; inconclusive means about -30% to -50%; inactive means above about -30%;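 also: stimulus is agonist 54-4 at its EC80 concentration; % is scaled to controls: 0 for no effect and ±100 for the full control effect; compound concentration not given in the record; the text of the record puts the active cut at -80%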
#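 TRPML1-DL cells, Tet-induced overnight (~16 h, 37 °C) at 1,500 cells/well, were loaded with Ca8 no-wash dye plus quencher for 45-90 min at room temperature. Compounds were pinned during FDSS kinetic reading; agonist 54-4 at EC80 (4 uM final) then added.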
# TRPML1 agonist: activates the human TRPML1 channel; activation, % (test concentration not listed); AID 624414; TRPML1-expressing cells, Ca2+ dye fluorescence, FDSS; host cell line not named in the record; reference of the full effect not given here; hit rate 0.12% among 410,000; in the data active = activation above about 50%; inconclusive = about 30% to 50%; inactive = below about 30%; also: 0% is about no effect; the text of the record puts the active cut at 80%
#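 Tetracycline-induced TRPML1-DL cells are seeded and incubated overnight before loading with a no-wash Ca2+ dye and quencher. Agonist activity is taken from the 110 s fluorescence read following compound pin-transfer on an FDSS, before EC80 54-4 challenge.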
# CtBP-E1A blk: inhibitors of CtBP/E1A interaction; activity change, % (test concentration not listed); hit rate 0.49% among 340,000; AID 651724; AlphaScreen GST-E1A/His-CtBP binding, 1536-well; stronger effect = lower value; control for the full effect not named in the record; in the data active means activity change below about -65%; inconclusive means about -30% to -65%; inactive means above about -30%; also: % is scaled to controls: 0 for no effect and ±100 for the full control effect; compound concentration not given in the record
#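 Homogeneous bead-based format: GST-tagged E1A captured on glutathione donor beads, His-tagged CtBP on nickel acceptor beads; compounds precede bead addition by 2 h at 37 °C.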
# TRPV1 potentiator: enhances activation of the human vanilloid receptor TRPV1. hit rate 0.02% among 320,000. TRPV1-expressing cells, Fluo-8 calcium influx, capsaicin EC20 potentiation; host cell line not named in the record; control for the full effect not named in the record. Q8NER1. potentiation, % at 8.33 µM; active means potentiation above 80%; inconclusive means 30% to 80%; inactive means below 30%; also: 0% is about no effect
#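 Fluo-8 calcium influx in TRPV1-expressing cells, kinetic read (ex 480/em 520 nm). Compound added and read 3 min for agonist activity, followed by capsaicin at EC20 final and 2 min further read for enhancement.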
# * = called active by the depositor; ? = inconclusive; . = no result given; & = joins results of further samples.
SMILES,Six1-Eya2 inh,D2 PAM,TRPML1 blocker,TRPML1 agonist,CtBP-E1A blk,TRPV1 potentiator
CC(=O)NC(c1ccc(C)cc1)c1cc([N+](=O)[O-])c2cccnc2c1O (centres undefined),-90*,-26,22,3.0,-93*,7
CSc1nc(N2CCOCC2)c2c3c(sc2n1)CCC3,-9,-4,3,1.0,4,5
CCN(CC)CCN1C(=O)C(O)=C(C(=O)c2ccco2)C1c1ccccn1 (centres undefined),-1,-8,1,3.3,-10,5
O=C(Nc1nnc2n1CCS2)c1ccc(Br)o1,?,-24,2,0.0,?,?
Cc1c([N+](=O)[O-])c(N)nn1C,10,-7,5,0.9,8,-13
COc1ccc(Nc2nc(C)cc(C)c2C(N)=O)cc1OC,2,-1,3,-0.8,8,6
CC(=O)c1ccc(NC(=O)CSc2nc(C3CC3)nc3ccccc23)cc1,5,-12,-16,-1.5,21,-30
Brc1ccc(Nc2c3c(nc4ncnn24)CCC3)cc1,-23,-6,-9,-0.6,?,4
O=C(CNc1ccccc1Cl)N/N=C1\CCCc2ccccc21,10,-6,-1,0.7,-6,-3
Cc1cc(/C=C(\C#N)C(=O)NCc2ccco2)c(C)n1-c1cccnc1,-11,-1,0,0.6,-4,-2
O=C(CNC(=O)c1cc(=O)[nH]c2ccc(S(=O)(=O)N3CCOCC3)cc12)Nc1ccc(F)c(F)c1,16,-7,-15,1.4,17,.
Cc1ccc(CN2CCC(CNS(=O)(=O)c3ccc(-c4ccc(=O)[nH]n4)s3)CC2)cc1,2,-28,0,0.8,-13,16
COc1ccc(S(=O)(=O)N(C)CC(=O)Nc2ccc(F)cc2)cc1,4,-10,-6,0.2,1,-8
Cc1cc(Nc2ccc3ccccc3c2)n2ncnc2n1,-4,-5,34,0.2,-1,-11
O=C1c2cccc3cccc(c23)C(=O)N1CC1CCN(S(=O)(=O)c2ccccc2)CC1,3,-3,7,0.0,-2,.
CCN(CC)S(=O)(=O)c1ccc(C(=O)OCCNC(=O)c2cccnc2)cc1,3,-6,-12,-0.2,5,14
Cc1ccccc1CSCc1ccc(C(=O)NCCCN2CCOCC2)o1,5,-10,-9,0.0,5,-15
COc1ccc(-c2cc3ncc(-c4ccccc4)c(N)n3n2)cc1,-9,-4,9,1.2,-3,2
CCCCN(C(=O)Cc1ccc2c(c1)OCCO2)c1c(N)n(CC(C)C)c(=O)[nH]c1=O,3,-36,10,0.0,2,-4
COc1cccc(C(=O)Nc2nc(-c3ccccc3)c(-c3ccccc3)o2)c1,-9,-1,5,2.7,-6,-7
CC(NC(=O)CSc1ncccn1)c1ccc(Cl)cc1Cl (centres undefined),-5,-5,-21,0.1,8,8
COc1ccc(OC)c(/C=C2\Oc3cc(OCC(=O)N4CC(O)C[C@H]4C(=O)O)ccc3C2=O)c1 (some centres undefined),2,-3,.,.,2,-13
CCC(C)c1c(O)nc(SCC(=O)N2CCCCC2)[nH]c1=O (centres undefined),-8,-9,8,0.7,.,-9
CC(C)N1CCc2c(sc(NC(=O)c3ccc(C(=O)c4ccccc4)cc3)c2C(N)=O)C1,-4,-12,0,4.1,-17,15
CCOC(=O)c1nc(NCc2ccccc2F)c2ccccc2n1,-2,-7,-13,0.6,0,-8

# New compounds follow
SMILES,Six1-Eya2 inh,D2 PAM,TRPML1 blocker,TRPML1 agonist,CtBP-E1A blk,TRPV1 potentiator
C(=N\Nc1nc2ccccc2[nH]1)/c1ccccc1,-2,-10,-8,-1.4,-1,-10
c1cnc(NCCSSCCNc2ncccn2)nc1,3,-13,10,0.1,-8,.
O=C(NCCCN1CCOCC1)c1ccc(Sc2ccc(Br)cc2)c([N+](=O)[O-])c1,3,-8,25,-0.2,-5,-16
Cc1ccc(-n2cc(CN3CCN(Cc4nccn4C)CC3)c(-c3ccc(F)cc3)n2)cc1,-2,-15,-7,0.7,.,10
C=C(C)c1cccc(C(C)(C)NC(=O)Nc2ccc(C)cn2)c1,-8,-16,0,0.8,0,-4
N#CCc1c(C#N)c(N)nc(N2CCCC2)c1C#N,0,3,3,-0.4,0,.
Cc1ccc2c(COC(=O)C34CC5CC(CC(C5)C3)C4)cc(=O)oc2c1,-2,-14,3,0.9,2,-2
CCCc1cc(=O)n2[nH]c(NC(=O)c3ccco3)nc2n1,7,-3,3,-0.1,-10,-5
C[C@H](C(=O)O)c1n[nH]c(=O)c2ccccc12,6,-12,-2,3.7,-8,3
CC1CC(C)(C)CC2(C1)NC(=O)N(CC(=O)NCC(c1ccco1)N1CCCCC1)C2=O (centres undefined),-2,15,6,2.9,7,11
CCOc1ccc(S(=O)(=O)Nc2ccc(C(=O)N/N=C(\C)c3ccc(-n4ccnc4)cc3)cc2)cc1,-1,19,-4,2.2,-2,0
C=CCNc1nc(-c2sc(NC(=O)CC)nc2C)cs1,-2,-6,-19,0.1,-1,10
COc1cccc(NC(=O)CN(c2ccc(C)cc2)S(=O)(=O)c2c(C)nn(C)c2C)c1,-5,-14,-3,-0.1,-9,-1
NC(=O)CC(NC(=O)c1ccc(Br)cc1)c1ccc(N2CCN(c3ccccn3)CC2)c([N+](=O)[O-])c1 (centres undefined),-20,-3,2,-0.6,-2,-3
Cc1ccc(-c2csc3nnc(SCC(=O)Nc4cccc(C)n4)n23)cc1,0,3,-1,1.2,1,-2
COc1ccc(NC(=O)CSc2nc(-c3ccncc3)nn2CC(=O)N2CCCC2)cc1,3,-9,-6,-0.6,5,1
CCNC(=O)N(C)c1c(CC)nc2ccc(C(=O)N3CCN(C(=O)c4ccco4)CC3)cn12,13,-1,.,-0.6,10,.
Cn1cnc(C(=O)N2CCN(c3ccccc3)CC2)c1C(=O)N1CCN(c2ccccc2)CC1,0,-5,6,-0.6,5,4
Cn1nnnc1SCC(=O)Nc1ccc(Br)cc1Cl,1,6,-7,1.5,10,6
NC(=O)c1ccc(NC(=O)COC(=O)/C=C/c2ccc3c(c2)OCO3)cc1,-1,-3,.,.,-7,-19
N/C(=N\OC(=O)c1cccs1)c1cccc([N+](=O)[O-])c1,-1,69*,-7,1.2,-4,-7
COc1cccc(-c2nc(CS(=O)(=O)CC(=O)Nc3cc(F)ccc3F)c(C)o2)c1,-5,-14,-5&-13,1.5&-0.1,0,-7
COc1cccc(NC(=O)CN(Cc2ccccc2)S(C)(=O)=O)c1,6,-8,16,-0.4,5,-5
Cc1nc2nc(NC(=O)c3ccco3)[nH]n2c(=O)c1C,6,0,12,3.7,.,-5
Cc1ccc(NC(=O)c2cccs2)cc1S(=O)(=O)Nc1cccc(Cl)c1,-15,13,-2,4.6,-8,9

# Part of the list above in order of number of heavy atoms, smallest number first:
SMILES,Six1-Eya2 inh,D2 PAM,TRPML1 blocker,TRPML1 agonist,CtBP-E1A blk,TRPV1 potentiator
C=CCNc1nc(-c2sc(NC(=O)CC)nc2C)cs1,-2,-6,-19,0.1,-1,10
Cc1cc(Nc2ccc3ccccc3c2)n2ncnc2n1,-4,-5,34,0.2,-1,-11
C=C(C)c1cccc(C(C)(C)NC(=O)Nc2ccc(C)cn2)c1,-8,-16,0,0.8,0,-4

# Pulled one by one from the entries so far, six records:
SMILES,Six1-Eya2 inh,D2 PAM,TRPML1 blocker,TRPML1 agonist,CtBP-E1A blk,TRPV1 potentiator
N/C(=N\OC(=O)c1cccs1)c1cccc([N+](=O)[O-])c1,-1,69*,-7,1.2,-4,-7
Cc1ccc(-c2csc3nnc(SCC(=O)Nc4cccc(C)n4)n23)cc1,0,3,-1,1.2,1,-2
C(=N\Nc1nc2ccccc2[nH]1)/c1ccccc1,-2,-10,-8,-1.4,-1,-10
NC(=O)CC(NC(=O)c1ccc(Br)cc1)c1ccc(N2CCN(c3ccccn3)CC2)c([N+](=O)[O-])c1 (centres undefined),-20,-3,2,-0.6,-2,-3
Cc1ccc(NC(=O)c2cccs2)cc1S(=O)(=O)Nc1cccc(Cl)c1,-15,13,-2,4.6,-8,9
Cc1ccc2c(COC(=O)C34CC5CC(CC(C5)C3)C4)cc(=O)oc2c1,-2,-14,3,0.9,2,-2

# Continuation:
SMILES,Six1-Eya2 inh,D2 PAM,TRPML1 blocker,TRPML1 agonist,CtBP-E1A blk,TRPV1 potentiator
CCC1=Nc2cc(C(=O)NCc3cccnc3)ccc2Sc2ccc(C)cc21,-5,-3,-7,1.0,-11,-14
COc1ccc(CNC(=O)c2cccc3c2C(=O)N(CC2CCCO2)C3)cc1 (centres undefined),6,-3,2,0.2,-1,8
O=C(NCCc1nc2ccccc2n1CCCOc1ccc(Cl)cc1)C1CCCCC1,.,.,41,5.0,.,-4
Cc1ccc(NC(=O)N2C3CCCC2CC(NC(=O)C(C)(C)C)C3)cc1 (centres undefined),1,-15,14,-0.2,.,0
COc1ccccc1CNC(=O)C(=O)NCC1OCCN1S(=O)(=O)c1ccc2c(c1)OCCO2 (centres undefined),1,1,-5,-0.5,-4,14
CCOc1ccc2[nH]c3nc(SCC(=O)NCC4CCCO4)nnc3c2c1 (centres undefined),-90*,0,-2,-1.5,-86*,12
Cc1ccc2c(c1)nnn2C1CCN(S(=O)(=O)c2ccc(C(=O)NC3CCCC3)cc2)CC1,3,-4,-20,0.7,0,-4
O=C(CN1C(=O)NC(Cc2c[nH]c3ccccc23)C1=O)Nc1ccc(Br)cc1F (centres undefined),-6,-5,4,-0.5,.,2
O=C(c1ccc(=O)[nH]c1)N(Cc1ccco1)C1(C(=O)NC2CCCCC2)CCCCC1,-5,-7,11,-0.6,2,6
C=Cc1ncc(OC)c2c1[nH]c1ccccc12,-6,-4,-10,0.0,5,6
Nc1ccc2nc(-c3ccc(-c4nc5ccc(N)cc5[nH]4)cc3)[nH]c2c1,-7,-53,9,4.6,.,-12
CC(=C\c1ccco1)/C=C(\C#N)C(=O)NCCc1c[nH]c2ccccc12,-6,18,14,2.5,3,16
COc1ccccc1C(=O)CC(=O)c1ccccc1,17,-9,-23,0.9,17,0
COc1cc(Cl)c(C)cc1NC(=O)CCNC(=O)c1ccco1,10,-7,-4,-0.5,0,17
Cc1cc(Br)ccc1NC(=O)CNC(=O)Cn1ncc(Cl)c(Cl)c1=O,31,1,-10,0.0,6,-6
CCC(=O)N1N=C(c2ccc(NS(=O)(=O)c3ccc(C)cc3)cc2)CC1c1ccco1 (centres undefined),-12,1,25,0.0,-9,.
CC(Nc1cc(N2CCN(S(C)(=O)=O)CC2)ccc1[N+](=O)[O-])c1ccccc1 (centres undefined),-5,-21,-2,2.7,0,-5
Cc1nc(-c2ccc(Cl)cc2)sc1C(=O)NN,-1,-8,12,0.0,-6,-7
CCN(c1cccc2ccccc12)S(=O)(=O)c1cccs1,-5,1,72,3.4,-12,.
CCC(=O)c1ccc2c(c1)N(CCCN(C)C)c1ccccc1S2,3,-36,38,1.3,1,.
COCCNC(=O)c1cc2c(c(-c3cccc(-c4cccc(OC)c4)c3)n1)[C@H](CCO)N(S(=O)C(C)(C)C)C2 (some centres undefined),-1,-3,.,-0.6,2,.
COCC(C)NC(=O)c1cccc([N+](=O)[O-])c1 (centres undefined),-3,-5,-17,0.4,9,3
CN1CC(=O)N(CC(=O)Nc2ccc(Cl)c(C(F)(F)F)c2)C1=O,2,-11,-11,-0.1,0,5
Cc1ccc(C(=O)COC(=O)c2ccc3c(c2)C(=O)N(c2cccc4ncccc24)C3=O)cc1,-1,-5,17,3.2,-6,1
O=S(=O)(NC1CCCCCC1)c1ccc(Br)s1,11,-2,-10,0.8,15,-9
CC1=C(C(=O)OC(C)C)C(C)C(C(=O)OC(C)C)=C(C)N1,6,-5,-5,3.4,16,-16
